Source: PubChem (National Center for Advancing Translational Sciences (NCATS))
CtBP-E1A inh: CtBP/E1A binding inhibition | activity change, % (concentration not given with the values) | 340,000 tested, 0.49% active | AlphaScreen GST-E1A/His-CtBP binding, 1536-well; active compounds read low; control for the full effect not named in the record | AID 651724; in the data active means activity change below about -65%; inconclusive means about -30% to -65%; inactive means above about -30%; further: on the % scale 0 is the no-effect control and ±100 the full control effect
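GST-E1A and His-tagged CtBP (125 nM each as 5X stock) were preincubated with pin-transferred compound for 2 h at 37 °C in the dark, then glutathione donor and nickel acceptor beads were added for 1 h before AlphaScreen reading.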
D2 ag: agonists of human D2 dopamine receptor (beta-arrestin) | P14416 | DiscoveRx PathHunter D2 beta-arrestin, luminescence, 90 min; 100% = 57 uM dopamine signal | activation, % (no concentration beside the values) | 360,000 tested, 0.084% active; in the data active = activation above about 40%; inconclusive = about 15% to 40%; inactive = below about 15%; further: compound concentration not given in the record; the text of the record calls up to 30% inactive
Target sequence (P14416 whole entry, looked up): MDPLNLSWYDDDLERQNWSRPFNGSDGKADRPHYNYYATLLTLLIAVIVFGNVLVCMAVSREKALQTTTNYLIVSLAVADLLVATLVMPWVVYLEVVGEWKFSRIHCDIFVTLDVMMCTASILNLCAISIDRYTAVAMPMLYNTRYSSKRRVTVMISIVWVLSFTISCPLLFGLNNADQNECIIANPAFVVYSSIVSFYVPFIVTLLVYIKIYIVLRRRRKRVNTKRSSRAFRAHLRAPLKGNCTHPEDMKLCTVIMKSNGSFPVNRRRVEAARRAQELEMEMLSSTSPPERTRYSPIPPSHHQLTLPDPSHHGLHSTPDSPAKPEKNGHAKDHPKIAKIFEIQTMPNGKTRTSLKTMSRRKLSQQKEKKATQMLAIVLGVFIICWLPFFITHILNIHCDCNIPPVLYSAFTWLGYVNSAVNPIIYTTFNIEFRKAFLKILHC
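Agonist mode: compounds alone added to overnight-plated D2 PathHunter cells for 90 min at 37 C, with 57 uM final dopamine (EC100) defining full response. Beta-arrestin recruitment detected by chemiluminescent reagent, read after 1 h at ambient temperature.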
gsp agonist: activates gsp, the McCune-Albright syndrome mutation; gsp mutant cells, cAMP HTRF, 30 min; control for the full effect not named in the record; Potency, µM (titrated, usually from 76.9 µM), for inactives: at the highest dose activation (cAMP increase), hits mostly activators; 340,000 tested, 0.13% active; AID 624287; active = well fitted activation curve with a large enough effect; inconclusive = small, poorly fitted or top-dose-only effect, or another doubt; inactive = no such curve, though single readings can be large or run the other way; cell line not stated here;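 further: phosphodiesterase inhibitor Ro 20-1724 added with compounds to block cAMP breakdown; potency means the concentration at half of the fitted maximal effect; nearly all actives have a fitted effect of over 60% in size; about a fifth of the inactives were tested at one dose only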
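Cells in DMEM/10% FBS with G418 were pretreated with compounds in DMSO plus […] (300 uM stock) for 30 min at 37C. cAMP was measured by HTRF (cAMP-d2 plus anti-cAMP antibody-K) after 30 min at room temperature.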
Six1-Eya2 inh: inhibitors of human Six1/Eya2 interaction | Q15475+O00167 | AlphaScreen GST-Six1/His-Eya2 binding, biochemical; active compounds read low; control for the full effect not named in the record | activity change, % (concentration not given with the values) | 360,000 tested, 0.56% active; in the data active = activity change below about -65%; inconclusive = about -30% to -65%; inactive = above about -30%; further: on the % scale 0 is the no-effect control and ±100 the full control effect
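Homogeneous AlphaScreen proximity assay pairing GST-Six1 with His-tagged Eya2 (added as 5X mix: 250 nM and 500 nM) in 50 mM Tris pH 8.0, 300 mM NaCl, 1 mM TCEP. Glutathione donor and nickel acceptor beads; 1 h, 37 °C, dark.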
D2 potentiator: human D2 receptor positive allosteric modulation | P14416 | DiscoveRx D2 beta-arrestin cells, luminescence, 90 min; 100% = 57 uM dopamine signal | potentiation, % (no concentration beside the values) | 360,000 tested, 0.23% active | AID 624464; active = potentiation of 50% or more; inconclusive = 30% to 50%; inactive = 30% or less;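 further: compound concentration not given in the record; tested on top of an EC20 dose of dopamine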
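PathHunter D2 cells, attached overnight at 37 deg C, received compound in DMSO plus dopamine at EC20 (50 nM final) for 90 min at 37 deg C. Beta-arrestin recruitment was read as luminescence after 1 h with detection reagent at ambient temperature.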
gsp antagonist: antagonizes gsp, the McCune-Albright syndrome mutation; 340,000 tested, 0.4% active; gsp-mutant cells, cAMP HTRF, 30 min; control for the full effect not named in the record; AID 624288; Potency, µM (highest dose often 76.9 µM), inactives show at the highest dose activity change, negative = inhibition, actives largely listed as inhibitors; active = falling curve of any shape with a large fitted effect; inconclusive = falling curve, mostly with a smaller effect; inactive = flat or rising curve; cell line not stated here;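 further: intracellular cAMP measured with PDE inhibitor Ro 20-1724 present during compound exposure; potency means the concentration at half of the fitted maximal effect; on the % scale 0 is the no-effect control and ±100 the full control effect; nearly all actives have a fitted effect of over 65% in size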
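HTRF cAMP measurement after 30 min RT detection following 30 min, 37C compound treatment alongside […] (added as 300 uM solution) in G418-selected cells seeded at 2000/well and grown 16–24 h.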
* = called active by the depositor; ? = inconclusive; / = no result given; [ ] = remark or other dose. Compounds were not picked by outcome, and some 1.4% of all compounds hit somewhere here.

SMILES	CtBP-E1A inh	D2 ag	gsp agonist	Six1-Eya2 inh	D2 potentiator	gsp antagonist
COc1cc(CN2CCCCCC2)cc(OC)c1OC	8	-2.7	11%[15.4 µM]	13	-15	-3%
CC1(C)Cc2cccc(OCC(=O)Nc3cc(S(C)(=O)=O)ccc3Cl)c2O1	/	1.2	4%	6	-1	-10%
COC(=O)c1c(NC(=O)COc2ncnc3ccccc23)sc(C)c1C	-1	-7.9	3%	-7	-10	-1%
CCC(C)c1ccccc1NC(=O)C(C)NCCN(C)C (stereo not given)	/	-4.0	-7%	-1	-12	12%
CCOC(=O)C1(CCOC)CCN(C(=O)c2ccc(CSC)o2)CC1	-1	-1.8	6%	-5	-11	-4%
Cc1cccc(N2CCN(C(=O)c3cccc(N4CCCC4=O)c3)CC2)c1C	2	3.6	-22%	1	-11	-12%
CCOc1ccc(/C=C2\SC(=S)N(NC(=O)c3ccncc3)C2=O)cc1OC	?	-2.5	7%[15.4 µM]	?	-8	?
COc1c(C(=O)NC(=S)Nc2nnn(C)n2)cc2ccccc2c1Br	-3	0.8	-52%[inhibitor]	20	?	8%
Cc1ccc(N2CC(C(=O)NCCC(C)C)CC2=O)cc1 (stereo not given)	-2	-0.3	-25%	8	-13	8%
CCc1cccc(NC(=O)C2CC2c2ccccc2)c1 (stereo not given)	10	-1.0	9%[15.4 µM]	17	-12	-4%
CC(C)c1ccc(NC(=O)C[n+]2ccn(C3=C([O-])c4ccccc4C3=O)c2)cc1	-1	-0.6	18%	-8	-10	6%
COC(=O)c1ccc(N2C(=O)c3ccc(OC)c(OC)c3C2=O)cc1	8	-2.8	-2%	6	22	24%
CN(C)S(=O)(=O)c1ccc(NC(=O)c2ccc([N+](=O)[O-])cc2)cc1	/	?	2%	-6	-3	-1%
CC(C)C(NC(=O)CN1C(=O)c2ccccc2C1=O)c1ccccc1 (stereo not given)	3	5.6	?	3	-7	-6%
CCn1nc(C(=O)Nc2ccc3c(c2)OCCO3)c2ccccc2c1=O	-20	-1.7	-41%[inhibitor]	?	-5	/
COc1ccccc1Cc1c(-c2ccc(C)cc2)nc2ccc(Cl)cn12	1	-5.9	/	-3	-6	/
CCC(=O)NC(=S)Nc1ccc(S(=O)(=O)NC2CCCCC2)cc1	7	1.0	4%[15.4 µM]	6	-13	-4%
Cc1cccc(/C=N/n2c(-c3ccccc3)n[nH]c2=S)c1O	-21	2.0	-38%[inhibitor]	-1	-5	6%
O=[N+]([O-])c1cc(C(F)(F)F)ccc1SCC(O)CO (stereo not given)	-4	-5.7	-2%[15.4 µM]	7	1	-25%
O=C(NCc1ccccc1)C1CCC(CNc2c(N3CCCCC3)c(=O)c2=O)CC1 (stereo not given)	-3	-3.9	15%	7	-1	2%
O=C(Nc1ccc(Br)cc1)c1ccc(N2C(=O)C3CC=CCC3C2=O)cc1 (stereo not given)	11	-2.1	10%	2	-6	8%
CCOC(=O)c1sc(NC(=O)c2cccc(S(=O)(=O)N(CC)CC)c2)cc1C	-18	-3.8	-4%	-19	-6	-7%
CCOC(=O)NC(=O)CSc1nnnn1-c1ccc(C)cc1	0	-0.6	-35%[inhibitor]	3	14	1%
COC(=O)c1ccc(C)c(NC(=O)Cn2cnc3ccccc3c2=O)c1	2	0.4	-5%	3	-1	4%
CC(=O)Nc1ccc(C(=O)N/N=C/C2CC3C=CC2C3)cc1 (stereo not given)	/	-4.2	4%	-5	0	-5%

(listing goes on)
SMILES	CtBP-E1A inh	D2 ag	gsp agonist	Six1-Eya2 inh	D2 potentiator	gsp antagonist
N/C(=N\OC(=O)CCCCCN1C(=O)c2ccccc2C1=O)c1ccccc1	4	-1.1	18%	36	-6	?
Cc1csc(NC(=O)C2CCCN2C(=O)OCC(C)C)n1 (stereo not given)	3	-5.6	22%	-3	-5	8%
Clc1cccc(N2CCN(c3nnnn3-c3ccccc3)CC2)c1	-7	-8.1	0%	-13	-12	-29%
Cc1ccc(Cl)c(OCCN2CCc3ccccc3C2)c1	/	-2.0	15%	10	-6	5%
Cc1cc(OCCn2cnc3ccccc3c2=O)cc(C(C)C)c1	-3	-1.5	8%[15.4 µM]	22	2	-18%
Cc1ccc(CNC(=O)Cn2cc(C(F)(F)F)ccc2=O)cc1	-3	-12	-24%	6	-13	4%
CC(C)c1ccc(/C=C/C(=O)Nc2nncs2)cc1	-2	2.7	-44%[inhibitor]	2	-14	-2%
N#Cc1ccccc1Sc1ccccc1C(=O)OCc1nnc(-c2ccccc2)o1	2	-3.1	-18%	-1	-2	-1%
Cc1ccc(CC(=O)Nc2ccc(S(=O)(=O)N3CCOCC3)cc2)cc1C	/	0.1	12%	4	-19	4%
COc1ccc(-c2nc(C#N)c(N3CCC(C(N)=O)CC3)o2)cc1	5	-2.2	-7%	-5	5	5%
Cc1ccc(OCC(=O)N/N=C/c2c[nH]c3ccccc23)c([N+](=O)[O-])c1	0	-3.7	-3%[15.4 µM]	-13	-4	22%
CCOc1ccc(CNC(=O)CCC(=O)n2nc(C)c3ccccc32)cc1	/	-3.9	18%	0	-9	-7%
O=C(O)c1ccccc1NS(=O)(=O)c1cccc2nsnc12	-3	-2.1	9%	10	-2	-2%
O=S1(=O)CC(N2CCCC2)CN1CCc1ccccc1 (stereo not given)	-14	-3.8	/	7	-7	/
Cc1ccccc1C(=O)NCCNC(=O)c1ccccn1	-2	-4.8	?	0	-8	5%
CN(C(=O)CCS(=O)(=O)c1ccc2c(c1)oc(=O)n2C)C1CCCCC1	-6	0.1	-13%	3	0	2%
CCOC(=O)C1CCCN(C2=NC(=O)/C(=C/c3ccc(OC)cc3OC)S2)C1 (stereo not given)	-1	2.7	-47%[inhibitor]	3	-4	?
O=[N+]([O-])c1ccc(/C=N/NC(=S)Nc2ccccc2F)o1	?	-5.9	-5%[15.4 µM]	-26	0	1%
O=C(COC(=O)/C=C/c1ccccc1)NCC1CCCO1 (stereo not given)	10	3.7	0%[15.4 µM]	5	-5	0%
Nc1ccc[n+](Cc2ccccn2)c1	-3	-1.0	-5%	0	-10	-17%[15.4 µM]
C=CC[C@H](CC(=O)NCCO)C(=O)NC[C@H](OC(=O)[C@@H](CC=C)Cc1ccc(F)cc1)c1ccccc1	-20	0.8	/	2	4	-4%
CC(C)(CC(=O)O)CC(=O)Nc1ccc2c(c1)ncn2CCc1ccccc1	1	3.9	-6%	3	-8	16%
CCc1ccccc1C1=CC(=O)C[C@H](c2ccc(OC)cc2)C1	11	0.6	-12%	9	-12	-6%
Cc1ccc(S(=O)(=O)Cn2nnnc2C(CC(C)C)N2CCN(C(=O)c3ccco3)CC2)cc1 (stereo not given)	-5	-2.4	-38%[inhibitor]	-8	-17	-6%
O=C(CN1CCOCC1)Nc1nc2ccc([N+](=O)[O-])cc2s1	-15	-4.2	5%	0	-11	-6%

(cont.)
SMILES	CtBP-E1A inh	D2 ag	gsp agonist	Six1-Eya2 inh	D2 potentiator	gsp antagonist
OCCCNc1nc(-c2ccc(Br)cc2)nnc1-c1ccc(Cl)cc1	-21	2.0	-2%	-10	-11	?
CCOc1ccc(N=Nc2c(=O)[nH]n3c(=O)cc(C)[nH]c23)cc1	?	-6.9	?	?	-20	?
CC1(C(=O)NS(=O)(=O)c2ccc(Cl)s2)CCN1C(=O)Cc1ccccc1Cl (stereo not given)	1	12	/	0	0	/
Cc1ccc(C)c(NC(=O)C2CC=CCC2C(=O)O)c1 (stereo not given)	5	-1.4	-2%	1	-8	-1%
COc1ccc(CCNC(=O)C2CCN(C(=O)c3ccccc3C)CC2)cc1	5	-4.6	-31%[inhibitor]	-10	-6	-4%
COc1ccc(OC)c(NC(=O)CSc2nc3scc(C)c3c(=O)[nH]2)c1	-9	-2.5	4%[15.4 µM]	2	0	0%
O=c1[nH]c(Nc2ccc3c(c2)OCCO3)nnc1Cc1ccccc1	-10	-2.5	0%[15.4 µM]	3	-14	-12%
O=C(Nc1ccc(OCC(=O)N2CCOCC2)cc1)c1cncc(Br)c1	0	1.7	-4%[15.4 µM]	0	-10	2%
COc1ccc(-c2cn(Cc3ccc([N+](=O)[O-])cc3)nn2)cc1	-5	2.4	-23%	-5	-9	-7%
COc1ccc(N2CC(C(=O)Nc3c4c(nn3-c3ccc(OC)cc3)CS(=O)(=O)C4)CC2=O)cc1 (stereo not given)	0	2.5	-7%	34	-1	-15%
CC(=O)C1=C(O)C(=O)N(c2ccc(Br)cn2)C1c1ccc(F)cc1 (stereo not given)	-2	3.1	23%[15.4 µM]	0	-9	-5%
COc1ccc(C2CCc3cc4c(cc3C2=NOC(C)=O)OCO4)cc1OC (stereo not given)	0	-0.3	-13%	-4	0	/
Cc1cc(C(=O)OCC(=O)N2C(C)CCCC2C)c(C)o1 (stereo not given)	8	-2.3	-37%[inhibitor]	4	-10	4%
Cc1nnsc1Sc1ccccn1	5	0.3	-12%	-1	2	10%
O=C(CC1C(=O)NCCN1Cc1cccc(C(F)(F)F)c1)NCCc1cnccn1 (stereo not given)	10	-2.9	-23%	1	-12	-7%
Cc1cccc(OCc2nnc(SCC(=O)O)n2Cc2ccccc2)c1	2	-2.5	12%[15.4 µM]	-9	2	0%
CCCC[N+](C)(C)CCC(=O)NC(C)(C)CS(=O)(=O)[O-]	0	-10	?	19	-33	13%
O=C(Nc1c2c(nn1-c1ccccc1)CS(=O)(=O)C2)C1CCCC1	-12	-1.3	-15%[15.4 µM]	14	-6	1%
Cc1ccc2c(c1)Sc1c(ccc3ccccc13)N2	-8	6.6	16%	-23	14	-9%
COc1ccc(Cl)cc1NC(=O)CSC1=NN2CCCC(=O)N=C2S1	3	-1.2	-33%[inhibitor]	4	-9	-31%
COc1ccc(CN2CCN(c3ccc(F)cc3)CC2)c(OC)c1OC	-3	5.9	13%	-13	-41	-2%
Cc1ccc(C(=O)Nc2cccc(-c3ccc(N4CCOCC4)nn3)c2)cc1[N+](=O)[O-]	-17	-5.1	21%	-26	-35	-19%
CSc1ncc(Cl)c(C(=O)Nc2cccc3ccccc23)n1	0	0.9	28%	20	3	?
Cc1ccc(N2NC(=O)/C(=C/c3ccc(-c4ccc(Cl)c(C(=O)O)c4)o3)C2=O)cc1	0	-0.3	-24%	-10	-4	11%

Exported with two lines to a compound: part of the list above.
Every second line gives: CtBP-E1A inh | D2 ag | gsp agonist | Six1-Eya2 inh | D2 potentiator | gsp antagonist
O=c1[nH]c(Nc2ccc3c(c2)OCCO3)nnc1Cc1ccccc1
 : -10 | -2.5 | 0%[15.4 µM] | 3 | -14 | -12%
O=C(Nc1ccc(OCC(=O)N2CCOCC2)cc1)c1cncc(Br)c1
 : 0 | 1.7 | -4%[15.4 µM] | 0 | -10 | 2%
COc1ccc(-c2cn(Cc3ccc([N+](=O)[O-])cc3)nn2)cc1
 : -5 | 2.4 | -23% | -5 | -9 | -7%
COc1ccc(N2CC(C(=O)Nc3c4c(nn3-c3ccc(OC)cc3)CS(=O)(=O)C4)CC2=O)cc1 (stereo not given)
 : 0 | 2.5 | -7% | 34 | -1 | -15%
